Mtb H37Rv: Mycobacterium tuberculosis H37Rv growth inhibition, putative kinase inhibitor library, confirmatory dose response (AID 2842) | M. tuberculosis H37Rv growth inhibition; higher % means a stronger effect; some inactives read as strong as hits | one-dose inhibition, % at 10 µg/mL; IC90 in µg/mL for titrated hits | 5.2% of 24,000 active;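 active = confirmed in a dose series; inconclusive = mostly over 85% at the one dose but not retested; inactive = below 85% or not confirmed; about a fifth of its hits are not listed in these tables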;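 also: bacteria incubated one week before Alamar blue readout; 0% = bacteria only wells and 100% = bacteria with high antibiotic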
Active calls of the source: *; u = inconclusive. Some of the compounds tested. The share of hits here may be higher or lower than overall.

Start of the data: the first five records, to show the layout:
smiles | Mtb H37Rv
Cc1nnc(NC(=O)CSc2cn(CCNC(=O)c3ccccc3C)c3ccccc23)s1 | 3%
O=C1C2ON(c3ccc(Cl)cc3)C(c3ccc([N+](=O)[O-])cc3)C2C(=O)N1c1cccc([N+](=O)[O-])c1 (stereo unspecified) | 12%
O=C1C(=O)N(CCO)C(c2ccc(O)cc2)/C1=C(/O)c1ccc(Cl)cc1 (stereo unspecified) | -19%
O=c1[nH]c(SCCSc2nc3ccccc3c(=O)[nH]2)nc2ccccc12 | 0%
COc1ccc(CCNc2cc(C)c(C#N)c3nc4ccccc4n23)cc1OC | -4%

The listing, previewed entries included:
smiles | Mtb H37Rv
Cc1nnc(NC(=O)CSc2cn(CCNC(=O)c3ccccc3C)c3ccccc23)s1 | 3%
O=C1C2ON(c3ccc(Cl)cc3)C(c3ccc([N+](=O)[O-])cc3)C2C(=O)N1c1cccc([N+](=O)[O-])c1 (stereo unspecified) | 12%
O=C1C(=O)N(CCO)C(c2ccc(O)cc2)/C1=C(/O)c1ccc(Cl)cc1 (stereo unspecified) | -19%
O=c1[nH]c(SCCSc2nc3ccccc3c(=O)[nH]2)nc2ccccc12 | 0%
COc1ccc(CCNc2cc(C)c(C#N)c3nc4ccccc4n23)cc1OC | -4%
Cc1cc(C)cc(NC(=O)c2cnc3n(c2=O)CCS3)c1 | 1%
COc1ccc(C(=O)CSc2ncnc3c2nnn3Cc2ccc(F)cc2)cc1 | 12%
O=C(Nc1c(C(=O)Nc2ccc3c(c2)OCCO3)oc2ccccc12)c1ccc(Cl)c([N+](=O)[O-])c1 | -2%
CCn1c(SCC(=O)Nc2ccc(C)c(Cl)c2)nc2c(c1=O)SC(C)C2 (stereo unspecified) | 2%
O=C(CSc1ncnc2c1cnn2-c1cccc(Cl)c1)Nc1nc2ccccc2s1 | -3%
Cc1ccc2cc(CCNC(=O)c3ccc(-c4ccccc4)cc3)c(=O)[nH]c2c1 | 12%
CCc1cccc(OCC(O)Cn2c(N3CCCCCC3)nc3c2c(=O)[nH]c(=O)n3C)c1 (stereo unspecified) | 2%
O=C(O)CCCN1C(=O)C2C3CC(C2C1=O)C1C(c2cccnc2)c2sc(=O)[nH]c2SC31 (stereo unspecified) | -11%
CCS(=O)(=O)c1ccc(C(=O)Nc2nc3ccc(S(C)(=O)=O)cc3s2)cc1 | -5%
NS(=O)(=O)c1ccc2nc(NC(=O)c3ccncc3)sc2c1 | -2%
O=c1cc(N2CCc3ccccc32)[nH]c(=O)n1Cc1ccc(F)cc1 | 3%
CC(=O)c1c(-c2ccccc2)c2cc(Br)ccc2[nH]c1=O | 6%
FC(F)(F)c1cccc(CSc2ccc3nnc(-c4ccccn4)n3n2)c1 | 63%
CCOc1c(CC)cnc2c1c(=O)n(Cc1cccnc1)c(=O)n2C | 7%
Clc1ccc2nc(Nc3nc4ccccc4[nH]3)nc(-c3ccccc3)c2c1 | 46%
COc1ccc(C)cc1NC(=O)C(=O)Nc1cc2c3c(c1)CCC(=O)N3CCC2 | 9%
CC(CNc1nc2c(-c3cccc(Br)c3)nnn2c2ccccc12)c1ccccc1 (stereo unspecified) | 1%
COc1ccc2nc(Nc3nnc(-c4ccco4)o3)sc2c1 | 26%
Cc1ccc(-n2c(=O)cc(N3CCN(C(=O)c4ccco4)CC3)[nH]c2=O)cc1 | 0%
N#C/C(C(=O)NCc1ccco1)=C1/SC=C(c2ccccc2)N1c1ccccc1 | 83%
Cc1cc2cc(CCNC(=O)COc3ccc(Cl)cc3)c(=O)[nH]c2cc1C | 1%
CC1CCCCN1S(=O)(=O)c1ccc(C(=O)Nc2sc3c(c2C#N)CCC3)cc1 (stereo unspecified) | 0%
CCOC(=O)c1nn(-c2ccc(Cl)cc2)c(=O)c2c(NC(=O)/C=C/c3ccc4c(c3)OCO4)scc12 | 5%
COc1cc(-c2noc(-c3cc(C4CC4)[nH]n3)n2)cc(OC)c1OC | -4%
COc1cccc2c1OC(c1ccncc1)N1N=C(c3ccc(O)cc3)CC21 (stereo unspecified) | 6%
COc1ccc(/C=C2\SC(=S)N(CC(=O)Nc3ccccc3C(=O)O)C2=O)cc1OC | -5%
Cn1cc(C(=O)Nc2ccc3c(c2)OCCO3)c2nn(-c3ccccc3)c(=O)c-2c1 | -4%
Cc1nnc(SCc2ccc(Cl)c(Cl)c2)n(N)c1=O | 4%
O=C(Nc1ncc(S(=O)(=O)c2ccc([N+](=O)[O-])cc2)s1)c1ccccc1[N+](=O)[O-] | 0%
COc1ccc(C(=O)Nc2c(N)nc(SCc3cccc4ccccc34)[nH]c2=O)cc1OC | -12%
O=C(c1cccc(Nc2nc(-c3ccccc3)c3cc(Br)ccc3n2)c1)N1CCCCC1 | 8%
O=C(O)CCCCCN1C(=O)/C(=C/c2c(NCc3ccco3)nc3ccccn3c2=O)SC1=S | -4%
COc1ccc(-c2c(C#N)c(SCC(N)=O)nc(C)c2C(=O)Nc2ccccc2)cc1OC | -19%
CC1CCCCN1S(=O)(=O)c1ccc(C(=O)Nc2ccccc2-c2nc3ccccc3s2)cc1 (stereo unspecified) | -1%
NNC(=O)c1ccc(S(=O)(=O)C(F)F)cc1 | 82%
COC(=O)c1ccccc1NC(=O)c1cnc2n(c1=O)CCS2 | -6%
CCOc1ccc2nc(N3CCCC3)sc2c1 | 17µg/mL*
COc1ccc(/C=C/C(=O)Nc2nnc(-c3ccccc3)s2)cc1OC | -4%
O=C(CSc1nc2c(c(=O)n1-c1ccc(Br)cc1)SCC2)NCC1CCCO1 (stereo unspecified) | 7%
CCN1C(=O)c2cccc3c(NC(=O)c4ccc(S(=O)(=O)N5CCc6ccccc6C5)cc4)ccc1c23 | -2%
Cc1c(C(=O)NC2CC(=O)N(c3ccc4c(c3)OCCO4)C2)cccc1[N+](=O)[O-] (stereo unspecified) | 10%
Cc1sc2nc(SCc3ccc(C(=O)NCCO)cc3)nc(N)c2c1C | 1%
O=C(Nc1ccc2c(c1)OCO2)c1ccc(NS(=O)(=O)c2ccc(Cl)cc2)cc1 | -6%
CC(=O)Nc1ccc(S(=O)(=O)NC2CC(=O)N(c3ccc4c(c3)OCCO4)C2)cc1 (stereo unspecified) | 1%
CCOC(=O)c1c(NC(=O)CSc2nc(N)cc(=O)[nH]2)sc2c1CCC2 | -25%
NS(=O)(=O)c1ccc(NC(=O)CN2C(=O)SC(=C3CCCCC3)C2=O)cc1 | -13%
CC(=O)c1cccc(NC(=O)CSc2ccc(-c3ccc4c(c3)OCO4)nn2)c1 | 5%
COc1cccc(-n2c(=O)[nH]cc(C(=O)Nc3cc(Cl)cc(Cl)c3)c2=O)c1 | 3%
O=C(CCCCCN1C(=O)c2cccc3cccc(c23)C1=O)Nc1nccs1 | -2%
CCCC(CCC)C(=O)Nc1scc2c(C(=O)OCC)nn(-c3ccc(OC)cc3)c(=O)c12 | 23%
CCOC(=O)c1nn(-c2ccc(Cl)cc2)c(=O)c2c(NC(=O)c3cccc4ccccc34)scc12 | -20%
COc1ccccc1-n1c(SCC(=O)Nc2cc(C)cc(C)c2)nc2c(c1=O)SCC2 | 15%
CCOC(=O)c1oc2ccccc2c1NC(=O)c1cccc([N+](=O)[O-])c1 | 3%
CCOC(=O)c1nn(-c2ccc(C)cc2)c(=O)c2c(NC(=O)c3cc4ccccc4o3)scc12 | 1%
Cc1csc2ncc(C(=O)NCc3ccc(Cl)cc3)c(=O)n12 | -7%

2 entries from above, as labelled records.
smiles: Cc1c(C(=O)NC2CC(=O)N(c3ccc4c(c3)OCCO4)C2)cccc1[N+](=O)[O-] (stereo unspecified)
  Mtb H37Rv: 10%

smiles: Cc1sc2nc(SCc3ccc(C(=O)NCCO)cc3)nc(N)c2c1C
  Mtb H37Rv: 1%

Some values from the list:
CCOC(=O)c1c(NC(=O)CSc2nc(N)cc(=O)[nH]2)sc2c1CCC2 in Mtb H37Rv is entered as -25%
NS(=O)(=O)c1ccc2nc(NC(=O)c3ccncc3)sc2c1 in Mtb H37Rv is entered as -2%
O=C(CSc1ncnc2c1cnn2-c1cccc(Cl)c1)Nc1nc2ccccc2s1 in Mtb H37Rv is entered as -3%
COc1ccc(C(=O)CSc2ncnc3c2nnn3Cc2ccc(F)cc2)cc1 in Mtb H37Rv is entered as 12%
CCn1c(SCC(=O)Nc2ccc(C)c(Cl)c2)nc2c(c1=O)SC(C)C2 (stereo unspecified) in Mtb H37Rv is entered as 2%

(listing goes on)
smiles | Mtb H37Rv
Cc1cc(C)c2sc(NNC(=O)c3ccc(S(=O)(=O)N4CCCC4)cc3)nc2c1 | 84%
CCOc1ccc(C(=O)Nc2c(N)nc(SCc3cccc([N+](=O)[O-])c3)[nH]c2=O)cc1 | -8%
COc1ccc(/C=C2/SC(=Nc3ccc(S(N)(=O)=O)cc3)NC2=O)cc1 | -4%
COc1ccc(-c2nc(SCC(=O)NCc3ccccc3)c3c(=O)n(C)c(=O)n(C)c3n2)cc1 | 4%
COc1cccc2cc(C(=O)NC(C)=O)c(=Nc3ccc(C(F)(F)F)cc3)oc12 | 3%
CC(=O)Nc1nnc(-c2ccc(S(C)(=O)=O)cc2)o1 | -3%
O=C1NC(=Nc2ccc(O)cc2)S/C1=C\c1ccccc1Cl | 23%
COc1ccc(C(=O)Nc2c(N)nc(SCC(=O)Nc3cccc(C)c3C)[nH]c2=O)cc1OC | -1%
COc1ccc(NC(=O)c2oc3ccccc3c2NC(=O)c2cc(Cl)ccc2Cl)cc1 | 5%
Cc1ccc2c(c1)NC(=O)c1cc(NS(=O)(=O)c3ccc4c(c3)OCCO4)ccc1O2 | 18µg/mL*
CCCC(=O)Nc1ccc2c(c1)C(=O)NC2=O | -10%
O=C(NCCN1CCCCCC1)c1cc(=O)[nH]c2ccc(S(=O)(=O)N3CCCCC3)cc12 | -10%
CCCCc1ccc(NC(=O)/C=C2\SC(=O)NC2=O)cc1 | 83%
O=C(Nc1ccc2c(c1)C(=O)NC2=O)c1ccc(-c2nc3ccccc3s2)s1 | -3%
CN(C)CCN1C(=O)C(O)=C(C(=O)c2cccs2)C1c1ccc(OCC(N)=O)cc1 (stereo unspecified) | -15%
CCOC(=O)N1CCN(C(=O)CSc2nc3c([nH]c4ccccc43)c(=O)n2-c2ccc(C)cc2)CC1 | -4%
N=c1c(C(=O)NCc2ccccc2)cc2c(=O)n3ccccc3nc2n1Cc1ccco1 | u
CC(=O)c1ccc(NC(=O)CSc2ccc(-c3ccccc3)nn2)cc1 | -4%
COc1ccccc1NC(=O)C1=C(C)NC(=O)NC1c1ccccc1F (stereo unspecified) | 10%
COc1ccc(C(=O)N(C)c2nnc(C34CC5CC(CC(C5)C3)C4)s2)c(OC)c1 | 16%

Among those listed so far, 2 have a CF3 group:
smiles | Mtb H37Rv
FC(F)(F)c1cccc(CSc2ccc3nnc(-c4ccccn4)n3n2)c1 | 63%
COc1cccc2cc(C(=O)NC(C)=O)c(=Nc3ccc(C(F)(F)F)cc3)oc12 | 3%

Next section.
smiles | Mtb H37Rv
CCCCC(=O)Nc1cc(C)c2c(=O)oc3ccccc3c2n1 | 19%
Cc1cc2cc(CCNC(=O)c3cccc(C(F)(F)F)c3)c(=O)[nH]c2cc1C | -2%
O=C(Nc1ccc(S(=O)(=O)Nc2nccs2)cc1)c1cc(F)c(F)c(F)c1F | -6%
CCOC(=O)c1nn(-c2ccc(Cl)cc2)c(=O)c2c(NC(=O)c3ccc(F)c(F)c3)scc12 | 2%
C=CCn1c(=NC(=O)COc2ccc(Cl)cc2Cl)sc2cc(Br)ccc21 | 2%
COc1ccc(-c2nnc3c4cc(C)ccc4n(Cc4cccc(C)c4)cc2-3)cc1 | 7%
COc1ccc(OCC(O)CN(CC(O)COc2ccc(OC)cc2)c2cccc(O)c2)cc1 (stereo unspecified) | 81%
O=C(Nc1nnc(-c2ccc(Br)cc2)o1)c1ccc(N2C(=O)CCC2=O)cc1 | -4%
COc1ccc(-n2c(Cn3c(=O)sc4ccccc43)n[nH]c2=S)cc1 | -7%
CCCCCOC(=O)c1c(C)oc2ccc(NS(=O)(=O)c3cccs3)cc12 | 15%
CCOC(=O)c1nn(-c2ccccc2)c(=O)c2c(NC(=O)c3cccs3)scc12 | 0%
O=C(CSc1ccc2nnc(-c3cccs3)n2n1)N1CCN(c2ccccc2)CC1 | -2%
COC(=O)c1ccc(CSc2nc3c(c(=O)n2-c2ccc(F)cc2)SCC3)o1 | 7%
CCOc1ccc(C(=O)NC2CC(=O)N(c3ccccc3)C2)cc1 (stereo unspecified) | 4%
O=C(/C=C/c1ccc([N+](=O)[O-])cc1)Nc1nnc(C2=COCCO2)o1 | 3%
CC1(C)C2CCC1(C)C(OC(=O)c1c3c(n4ccccc14)C(=O)c1ccccc1C3=O)C2 (stereo unspecified) | -3%
CCCCOc1ccc(C(=O)Nc2ccc3c(c2)C(=O)N(C)C3=O)cc1 | 2%
O=C(CSc1nccn(-c2cccc(F)c2)c1=O)Nc1ccccc1 | -5%
O=C(CSc1n[nH]c(=O)[nH]c1=O)N/N=C/c1c[nH]c2ccccc12 | -5%
O=C(NCCCN1CCOCC1)C(=O)Nc1cc2c3c(c1)CC(=O)N3CCC2 | 1%
COc1ccc(NC(=O)Cn2ccc3c(OC)cccc3c2=O)cc1 | -2%
CCOc1ccccc1NC(=O)c1c[nH]c(=O)n(-c2ccc(F)cc2)c1=O | 0%
Cc1ccc(C)c(-c2nnc(NC(=O)c3ccc(Cl)s3)o2)c1 | 26µg/mL*
Cc1c(C(N)=O)sc2ncn(CCOc3ccccc3)c(=O)c12 | 10%
CCS(=O)(=O)c1ccc(CC(=O)Nc2nc3ccccc3s2)cc1 | 0%
Cc1cc(C)c(NC(=O)CSc2nc(N)c(NC(=O)c3cccs3)c(=O)[nH]2)c(C)c1 | -5%
Cc1ccc2nc(NC(=O)CSc3nc(=O)cc(N)n3-c3ccc(Cl)cc3)sc2c1 | 25%
COc1ccc(-c2csc(/C(C#N)=C\c3ccc(C)cc3)n2)cc1OC | 31%
O=C(Nc1nc(-c2ccc(-c3ccccc3)cc2)cs1)c1ccc(F)c(F)c1 | 6%
O=C(Nc1nc(-c2ccc3c(c2)OCCO3)cs1)c1ccccc1 | 5%
O=C(Cn1cnc2c(cnn2-c2ccccc2)c1=O)Nc1ccc(Br)cc1 | -8%
COc1ccc(C(=O)c2cn(Cc3ccccc3F)c3cc(OC)c(OC)cc3c2=O)cc1 | -2%
